Sa growth 42C – S. aureus growth inhibition at 42 and 30 °C, primary screen, LtaS inhibitor project, RN4220, two temperatures. relative growth, % (concentration not given with the values). OD600, 20 h, 42 °C; hits give low values. 170,000 compounds, 0.53% hits. AID 720641, 2013;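 active = growth at 42 °C up to 50% and 20 or more points under that at 30 °C, or under 10% at both; inconclusive = no clear call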;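 note: 300 nL library stock went into each well; scaled to the means of positive and negative controls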
HCMV UL50-53 inh – inhibitors of HCMV UL50-UL53 interaction, biochemical, HTRF; 190,000 compounds, 0.15% hits; normalized percent inhibition; HCMV UL50-UL53 nuclear egress complex (human cytomegalovirus); inhibition, % (no concentration beside the values);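 active = both replicates at 50% or more, plus weaker picks with an unusually low signal ratio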;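 note: stock transfer was 100 nL into about 20 µL; 0% = negative control wells and 100% = wells with untagged competitor protein; inactives centre near -12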
GIV-Gai inh – inhibitors of GIV peptide binding to Galpha-i3, primary screen, biochemical, fluorescence polarization, FITC-GIV GBA peptide, rat Galphai3 | Guanine nucleotide-binding protein G(i) subunit alpha-3 (Rattus norvegicus), P08753 | 90 min; hits give low values; scaled: aluminum fluoride 0%, vehicle 100% | percent of control (FP), % (no concentration beside the values) | 210,000 compounds, 0.42% hits | AID 1224905, 2016;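 active = replicate mean at 85% of control or lower, very high polarization wells dropped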;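 note: wells of about 15 µL received 100 nL stock; the first replicate is given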
Target sequence (P08753 whole entry, looked up): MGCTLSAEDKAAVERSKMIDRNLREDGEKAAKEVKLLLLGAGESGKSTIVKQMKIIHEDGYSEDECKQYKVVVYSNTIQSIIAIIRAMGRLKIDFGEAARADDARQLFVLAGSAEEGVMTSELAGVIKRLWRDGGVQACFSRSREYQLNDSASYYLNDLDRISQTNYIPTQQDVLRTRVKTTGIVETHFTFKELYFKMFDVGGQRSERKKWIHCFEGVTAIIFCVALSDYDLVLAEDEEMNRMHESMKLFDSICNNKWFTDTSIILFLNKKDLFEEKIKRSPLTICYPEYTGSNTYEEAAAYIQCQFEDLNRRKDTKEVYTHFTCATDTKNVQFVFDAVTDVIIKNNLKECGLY
Sa growth 42C second temp – further read-out of Sa growth 42C, marked with its call; relative growth, %; measured here: growth at 30 °C;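 optical density after 20 h as mean of two plates; 100% = untreated growth and lower means inhibition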
Active calls of the source: *; ? = inconclusive; . = not tested or not shown; & = joins results of further samples.

SMILES | Sa growth 42C | Sa growth 42C second temp | HCMV UL50-53 inh | GIV-Gai inh
Cn1c(=O)c2c(-c3cccc(Cl)c3)c(NCc3ccccc3)oc2n(C)c1=O | . | . | 3 | 103
COc1cc(C(=O)Nc2ccccc2C(=O)N2CCN(C)CC2)cc(OC)c1OC | 105 | 87 | -10 | 103
Oc1[nH]c2ccccc2c1C=NCCN1CCOCC1 | 103 | 107 | -41 | 102
Cc1ccc(C)c(C(=O)NC(C)CN)c1 (stereo not given) | 123 | 91 | -32 | .
NC(=O)N(N)c1nc(N2CCCCC2)nc(N2CCCCC2)n1 | 117 | 85 | -8 | .
CCOC(=O)/C=C(\C)Sc1cc(=O)oc2ccccc12 | 93 | 66 | . | 102
COc1ccccc1OCCn1c(-c2ccc(Cl)cc2)nc2ccccc2c1=O | 95 | 86 | 8 | 105
CCCOc1ccc2c3c(c(=O)oc2c1C)CCC3 | 125 | 96 | 4 | .
CCn1c(C(=O)NCCC(C)C)cc2c(=O)oc3ccccc3c21 | . | . | -5 | 105
CC1CCN(C2=NC(Cc3ccccc3)C(=O)N2C2CCCCC2)CC1 (stereo not given) | 93 | 70 | -30 | 105
Nc1nsnc1C(=O)NCCO | 123 | 84 | -22 | 96
CCOCCOC(=O)C1=C(C)N(C)C(=O)NC1c1ccc(OCc2ccccc2)cc1 (stereo not given) | . | . | -14 | 103
COc1ccc(Cn2c(CO)cnc2SCc2ccc(C)cc2)cc1 | 126 | 107 | . | 105
O=C(Nc1ccccc1O)c1cc(S(=O)(=O)N2CCCC2)ccc1Cl | 108 | 87 | -25 | 108
CC(C)CCOc1ccccc1Cn1c(=O)sc2ccccc21 | 110 | 98 | -1 | 103
CCC1CCCCN1C(=O)c1cc(-c2cccc(OC)c2)no1 (stereo not given) | 96 | 63 | -16 | 98
O=C(c1ccccc1)c1ccc(N=Cc2ccccc2O)cc1 | 83 | 95 | 6 | .
Cc1cccc2nc(-c3ccc(Cl)s3)c(Nc3ccc4c(c3)OCCO4)n12 | 106 | 88 | -5 | 98
Cc1nc(-c2ccccc2)sc1C(=O)Nc1ccc(S(N)(=O)=O)cc1 | 108 | 81 | -2 | 103
Clc1cccc(Cc2nnc(-c3ccccc3)o2)c1 | 75 | 44 | . | 110
COc1ccc(NC(=O)OC(C)C)cc1 | 109 | 87 | . | 101
CCN(CC)CC(O)Cn1c(-c2ccccc2Cl)nc2ccccc21 (stereo not given) | 73 | 111 | -10 | 104
COc1ccc(C2C(=O)N(C3CCC(C)CC3)CC(=O)N2C2CCCC2)cc1OC (stereo not given) | 97 | 85 | . | 101
Cc1ccc(NC2=C(CC(=O)O)C(c3ccc(F)cc3)N(c3ccc(C)cc3)C2=O)cc1 (stereo not given) | 82 | 75 | -23 | 104
COc1cccc(Cc2nc3ccccc3nc2SCC(=O)Nc2ccccc2F)c1 | 88 | 94 | . | 104
CCOC(=O)c1c(NC(=O)c2ccc(Cl)cc2)sc(C(=O)Nc2ccccc2OCC)c1C | . | . | -13 | 109
CCc1ccc(C(=O)c2cn(CC(=O)Nc3ccc(C)c(C)c3)c3ccccc3c2=O)cc1 | 85 | 96 | 6 | 104
CCOCCc1nnc(NC(=O)C(=O)c2cc(C)n(-c3ccc(Cl)cc3)c2C)s1 | 94 | 112 | 0 | 102
O=C(O)c1ccccc1N(Cc1ccc(Br)cc1)C(=O)c1ccco1 | 99 | 100 | -18 | .
CCc1ccccc1N(C)C(=O)C1CCCN(c2ncnc3onc(-c4ccc(F)cc4)c23)C1 (stereo not given) | 90 | 92 | . | 109
CC(C)N(C(=O)Cn1ncc2c(=O)oc3ccccc3c21)C1CCCCC1 | 86 | 87 | . | 96
CCOc1ccc(C(=O)N2CCSC2=S)cc1 | 74 | 94 | -3 | 110
CC(=O)N1CCC(N(CCCN2CCC(C)CC2)C(=O)Nc2ccccc2C(F)(F)F)CC1 | 90 | 93 | -9 | 100
CN1CCN(C(=O)C(NC(=O)c2ccc(Cl)cc2)C23CC4CC(CC(C4)C2)C3)CC1 (stereo not given) | 101 | 99 | 4 | 109
COc1ccc(NS(=O)(=O)c2ccc3c(c2)CCN3C(=O)CCC(=O)O)cc1Cl | 96 | 87 | -38 | 98
CCOc1ccc2ncc(C(=O)c3ccccc3)c(N3CCOCC3)c2c1 | . | . | -10 | 98

Of the compounds above, these contain an aryl methoxy group.
SMILES | Sa growth 42C | Sa growth 42C second temp | HCMV UL50-53 inh | GIV-Gai inh
COc1cc(C(=O)Nc2ccccc2C(=O)N2CCN(C)CC2)cc(OC)c1OC | 105 | 87 | -10 | 103
COc1ccccc1OCCn1c(-c2ccc(Cl)cc2)nc2ccccc2c1=O | 95 | 86 | 8 | 105
COc1ccc(Cn2c(CO)cnc2SCc2ccc(C)cc2)cc1 | 126 | 107 | . | 105
CCC1CCCCN1C(=O)c1cc(-c2cccc(OC)c2)no1 (stereo not given) | 96 | 63 | -16 | 98
COc1ccc(NC(=O)OC(C)C)cc1 | 109 | 87 | . | 101
COc1ccc(C2C(=O)N(C3CCC(C)CC3)CC(=O)N2C2CCCC2)cc1OC (stereo not given) | 97 | 85 | . | 101
COc1cccc(Cc2nc3ccccc3nc2SCC(=O)Nc2ccccc2F)c1 | 88 | 94 | . | 104
COc1ccc(NS(=O)(=O)c2ccc3c(c2)CCN3C(=O)CCC(=O)O)cc1Cl | 96 | 87 | -38 | 98

The results go on:
SMILES | Sa growth 42C | Sa growth 42C second temp | HCMV UL50-53 inh | GIV-Gai inh
COc1ccccc1N1CCN(CC(O)COc2ccc3c(C)cc(=O)oc3c2)CC1 (stereo not given) | 94 | 88 | -5 | .
OCCNc1nc2ccc(Cl)cc2[nH]1 | 76 | 106 | -15 | 97
CC(=NC(=S)c1ccc(Cl)cc1)N(C)C | 94 | 87 | -31 | 113
CCC(=O)Nc1ccccc1-c1nc2ccccc2n(C(C)C(=O)Nc2cccc(Cl)c2C)c1=O (stereo not given) | 123 | 86 | 12 | 105
CCN(CC)S(=O)(=O)c1ccc2c3c(cccc13)C(=O)N2C(=O)c1cccnc1 | 85 | 91 | -55 | 100
Cc1cccc(N(C)c2nc3ccccc3c3nnc(C)n23)c1 | 119 | 99 | . | 113
CNC(=O)Nc1ccc2snnc2c1 | 92 | 70 | . | 102
S=c1[nH]n(-c2ccccc2)c(=S)s1 | 115 | 98 | 0 | .
Cc1nc2sccn2c1C(=O)c1ccc(NC(=O)c2ccc(F)cc2)cc1 | 105 | 91 | 4 | .
O=C(CSc1nc2ccccc2o1)NCc1n[nH]c(=O)c2ccccc12 | . | . | -26 | 106
CC(C)CCNC(=O)c1cc2cc(S(=O)(=O)N3CCCCC3)ccc2n1C | 89 | 90 | . | 99
Cc1cccc(NC(=O)Cn2cnc3ccccc3c2=O)c1 | 95 | 85 | -9 | 97
CCOC(=O)C1CCN(C(=O)CCS(=O)(=O)Cc2ccccc2)CC1 | 93 | 80 | -13 | 97
Cc1ccc(N2C(=O)/C(=C/c3cc(Cl)c(OCC(=O)O)c(Cl)c3)C(=O)NC2=S)cc1 | . | . | -20 | 96
CCNC(=S)Nc1ccc(OC)cc1 | 119 | 81 | -10 | .
CC1=C(C(=O)Nc2ccc(Br)cc2F)C2C(=O)N(C)C=NC2O1 (stereo not given) | 94 | 95 | -23 | 104
CCOC(=O)N1c2ccc(C(C)C)cc2C=CC1C#N (stereo not given) | 108 | 79 | -7 | 98
O=C(c1ccc(N2CCNCC2)c(NS(=O)(=O)c2ccc(Br)cc2)c1)N1CCCC1 | . | . | -18 | 103
CCOC(=O)c1ccc(NC(=O)N2CC(C)Oc3ccccc32)cc1 (stereo not given) | 87 | 75 | . | 95
CN1C(=O)/C(=C2/SC(=S)N(c3cccc(O)c3)C2=O)c2ccccc21 | 121 | 103 | -23 | 101
Cc1nc(-c2ccccc2)sc1C(=O)Nc1ccc(-c2cn3ccccc3n2)cc1 | . | . | -7 | 104
CN(C(=O)c1coc(=O)c2ccccc12)c1ccc(F)cc1 | 107 | 83 | . | 103
NS(=O)(=O)c1ccc(CCNC(=O)CCCn2c(SCC(=O)Nc3nccs3)nc3ccsc3c2=O)cc1 | 98 | 99 | 7 | 112
Cc1ccccc1Nc1nn2c(=O)c3ccc(C(=O)N4CCCC(C)C4)cc3nc2s1 (stereo not given) | 108 | 80 | . | 105

3 entries out of the list, ordered by SMILES length, descending.
SMILES | Sa growth 42C | Sa growth 42C second temp | HCMV UL50-53 inh | GIV-Gai inh
Cc1ccc(N2C(=O)/C(=C/c3cc(Cl)c(OCC(=O)O)c(Cl)c3)C(=O)NC2=S)cc1 | . | . | -20 | 96
O=C(c1ccc(N2CCNCC2)c(NS(=O)(=O)c2ccc(Br)cc2)c1)N1CCCC1 | . | . | -18 | 103
CN1C(=O)/C(=C2/SC(=S)N(c3cccc(O)c3)C2=O)c2ccccc21 | 121 | 103 | -23 | 101

(continued)
SMILES | Sa growth 42C | Sa growth 42C second temp | HCMV UL50-53 inh | GIV-Gai inh
Brc1ccc(-c2nc3ccccn3c2Nc2ccc3c(c2)OCCO3)o1 | 96 | 87 | -34 | 100
COc1ccc(C)cc1Nc1c2c(nc3ccccc13)CCC2 | 102 | 70 | -11 | 104
O=C(CSCc1cc(=O)c2ccccc2[nH]1)Nc1cccc(C(F)(F)F)c1 | 105 | 102 | . | 103
CCc1ccc(N2C(=O)CN(C(C)CC)[C@H]3CS(=O)(=O)C[C@H]32)cc1 (stereo not given in full) | . | . | -25 | 97
NC(=O)COC(=O)c1ccccc1Oc1ccccc1 | 117 | 85 | -8 | .
Cc1cc(C)nc(NS(=O)(=O)c2ccc(NC(=O)c3ccccc3Cl)cc2)n1 | . | . | -5 | 98
CCCC(=O)OC1C(=O)c2ccccc2OC1c1ccccc1 (stereo not given) | 94 | 84 | 36 | 100
O=C(NCCN1CCOCC1)C1CCN(c2nc3ccccc3n(Cc3ccccc3)c2=O)CC1 | . | . | 5 | 107
CN1/C(=C\C=N\Nc2ccccn2)C(C)(C)c2ccccc21 | 91 | 90 | -14 | .
Nc1cc(C(=O)N2CCCC2)cc(C(=O)N2CCCC2)c1 | 108 | 101 | -1 | 105
C=CCn1nnnc1SCc1cccc(CSc2nnnn2CC=C)c1 | 112 | 77 | 1 | .
O=C(NCc1ccccc1)C1CCCN(c2nc3ccsc3c(=O)s2)C1 (stereo not given) | 103 | 99 | . | 101
CCOC(=O)c1c(C)[nH]c(C)c1S(=O)(=O)N1CCC(C(=O)Nc2ccccc2C)CC1 | . | . | 1 | 103
Cc1ccc2nc3c(cc2c1)CCN3S(=O)(=O)c1ccc(Cl)cc1 | . | . | -7 | 105
COc1ccc(C2c3ccsc3CCN2C(=O)c2c(C)noc2C)cc1 (stereo not given) | 87 | 80 | -8 | 93
Cc1ccc2c(CC(=O)Nc3ccc(S(=O)(=O)N4CCCC(C)C4)cc3)coc2c1 (stereo not given) | 101 | 92 | -13 | 103
CC(C(=O)Nc1ccccc1C(F)(F)F)n1nnc2sc3c(c2c1=O)CCCC3 (stereo not given) | 101 | 92 | -22 | 102
CCN1C(SCc2ccc(N3CCCC3=O)cc2)=NS(=O)(=O)c2ccccc21 | . | . | -33 | 101
CCn1c(CSc2nc(C)c(C)n2C2CCCC2)nc2cc(S(=O)(=O)N(C)C)ccc21 | 92 | 93 | 7 | .
CC1(C)CCCC2(C)C1CCC(C)(O)C2CCO (stereo not given) | 124 | 127 | 0 | 99
COc1ccccc1C(=O)Nc1ccc(S(=O)(=O)Nc2ncccn2)cc1 | 94 | 84 | -8 | 100
CCOC(=O)c1ccc(Nc2nc3ccc(C)cc3n3cnnc23)cc1 | . | . | -7 | 108
CCc1ccccc1N(C)C(=O)Cc1c(C(=O)O)[nH]c2ccccc12 | 143 | 69 | . | 100
O=C(NCCC1=CCCCC1)c1ccc2c(c1)N(Cc1ccccc1)C(=O)c1ccccc1S2(=O)=O | 108 | 103 | -34 | 105
COc1ccc(Nc2cc(C(=O)NCc3ccccc3OC)c3ccccc3n2)cc1 | 122 | 94 | . | 105
CC1CN(c2ccc(Cl)cc2)c2nc3c(c(=O)n(CC(=O)O)c(=O)n3C)n2C1 (stereo not given) | 102 | 90 | -11&18 | 105&103
Cc1ccc(C(=O)COC(=O)COc2ccccc2O)cc1C | 93 | 92 | 15 | .
Cc1cc(C)c(S(=O)(=O)Nc2cc(C(=O)O)ccc2N2CCN(C)CC2)c(C)c1 | . | . | -24 | 108
N#CCc1ccc(NC(=O)CCc2nc3cccnc3n2Cc2cccs2)cc1 | 99 | 79 | -13 | 121
Cc1ccc(-c2csc3ncn(CC4CCCO4)c(=O)c23)cc1 (stereo not given) | . | . | -8 | 102
NC(=O)c1cc[n+](CC2=C(C(=O)O)N3C(=O)C(NC(=O)C(c4ccccc4)S(=O)(=O)[O-])C3SC2)cc1 (stereo not given) | ? | . | -3 | .
CC(C)Oc1ccc(CNC(=O)c2ccc(NC(=O)N3CCSc4ncccc43)cc2)cc1 | 102 | 96 | . | 111
CC(C)/C=C1\CC/C(=C\c2ccc(C(F)(F)F)cc2)C1=O | 103 | 80 | . | 106
CCOC(=O)c1sc(NC(=O)C2COc3ccccc3O2)c(C(=O)OCC)c1C (stereo not given) | . | . | -21 | 103
O=c1c2cc3c(cc2nc(SCc2cccc(F)c2)n1Cc1ccco1)OCO3 | 97 | 87 | 0 | 96
Cc1ccnc(NC(=O)Cn2ncc3c2-c2ccccc2OC3)c1 | 92 | 90 | -7 | 99
